Compound activity: PubChem BioAssay, National Center for Advancing Translational Sciences (NCATS)
GLS inh = blocks human kidney-isoform glutaminase activity; O94925; GLS enzymatic activity, qHTS titration; Potency, µM (doses to about 45.5 µM), inactives show top-dose activity change, negative = inhibition, actives largely listed as inhibitors; actives 0.21% (n = 410,000); further: potency means the concentration at half of the fitted maximal effect; on the % scale 0 is the no-effect control and ±100 the full control effect
Target sequence (O94925 whole entry, looked up, canonical isoform): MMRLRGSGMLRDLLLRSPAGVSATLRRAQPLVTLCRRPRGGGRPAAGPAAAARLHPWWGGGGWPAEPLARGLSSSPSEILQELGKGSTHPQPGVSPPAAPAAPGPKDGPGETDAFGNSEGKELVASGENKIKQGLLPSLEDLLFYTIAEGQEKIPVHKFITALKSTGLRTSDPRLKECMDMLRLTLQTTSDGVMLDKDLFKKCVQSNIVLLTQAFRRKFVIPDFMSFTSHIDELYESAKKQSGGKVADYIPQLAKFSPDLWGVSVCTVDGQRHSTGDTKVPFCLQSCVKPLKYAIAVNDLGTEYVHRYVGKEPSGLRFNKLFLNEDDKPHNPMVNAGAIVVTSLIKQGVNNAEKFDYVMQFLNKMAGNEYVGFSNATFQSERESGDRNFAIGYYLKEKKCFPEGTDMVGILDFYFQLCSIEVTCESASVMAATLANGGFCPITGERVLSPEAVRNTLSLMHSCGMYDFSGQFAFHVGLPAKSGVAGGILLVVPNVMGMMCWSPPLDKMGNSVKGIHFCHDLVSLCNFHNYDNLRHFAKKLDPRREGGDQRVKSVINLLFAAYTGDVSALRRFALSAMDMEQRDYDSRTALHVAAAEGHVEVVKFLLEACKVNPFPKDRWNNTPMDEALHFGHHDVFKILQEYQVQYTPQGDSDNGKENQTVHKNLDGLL
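Glutamate formation by hKGA was monitored fluorometrically using coupled glutamate oxidase, HRP and Amplex Red. Substrate was added as 1 mM L-glutamine solution; incubation was 30 min at RT after an initial read.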
Pin1 inh = inhibitors of human Pin1; Pin1 FP peptide displacement, HiFluor488, 10 min; Potency, µM (doses to about 115 µM), without a hit: at the top dose activity, negative = inhibition, actives largely listed as inhibitors; actives 0.009% (n = 390,000); AID 504891; Q13526; active means well fitted inhibition curve with a large enough effect in the polarisation, with a control signal flat, not every such curve was filed as active; inconclusive means small, poorly fitted or top-dose-only effect, or effect the other way, or a change in a side signal; inactive means no such curve, though single readings can be large or run the other way; the % refers to the polarisation; further: potency means the concentration at half of the fitted maximal effect; on the % scale 0 is the no-effect control and ±100 the full control effect
Target sequence (Q13526 whole entry, looked up): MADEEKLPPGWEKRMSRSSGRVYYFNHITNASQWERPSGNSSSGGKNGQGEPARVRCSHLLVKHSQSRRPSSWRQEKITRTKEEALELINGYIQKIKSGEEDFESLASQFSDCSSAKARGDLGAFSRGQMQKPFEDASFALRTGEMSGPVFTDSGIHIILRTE
HP1b chromo inh = blocks HP1-beta chromodomain binding to methylated histone tails | P83916 | AlphaScreen HP1-beta / biotin-H3K9me3 peptide binding | Potency, µM (top dose mostly 114 µM), for the others: top-dose activity change, negative = inhibition, hits mostly inhibitors | actives 0.56% (n = 390,000); further: potency means the concentration at half of the fitted maximal effect; nearly all actives have a fitted effect of over 70% in size; inactives centre near 23
Target sequence (P83916 whole entry, looked up): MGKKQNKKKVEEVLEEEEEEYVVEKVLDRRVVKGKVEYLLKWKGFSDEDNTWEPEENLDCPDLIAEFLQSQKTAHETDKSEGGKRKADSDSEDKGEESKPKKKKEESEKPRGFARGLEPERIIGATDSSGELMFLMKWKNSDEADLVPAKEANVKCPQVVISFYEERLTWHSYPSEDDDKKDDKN
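Compound inhibition of the preformed complex between 50 nM HP1-beta and 50 nM biotinylated H3K9me3 peptide was read by AlphaScreen. Buffer was PBS pH 7.4 with 0.01% Tween-20. Incubations ran 30 min at room temperature, with 10 ug/mL donor/acceptor beads.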
TrxR1 inh = blocks rat thioredoxin reductase 1 | O89049 | recombinant rTrxR1, NADPH fluorescence consumption, selenite substrate | Potency, µM (titrated, usually from 114 µM), inactives show at the top dose activity change, negative = inhibition, most hits filed as inhibitors | actives 1% (n = 390,000); further: potency means the concentration at half of the fitted maximal effect; on the % scale 0 is the no-effect control and ±100 the full control effect; nearly all actives have a fitted effect of over 65% in size
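Rat TrxR1 (90 nM in the dispensed reagent) was pre-reduced with 400 uM NADPH for 5 min at room temperature, then incubated with compound for 15 min. After 400 uM selenite was added, NADPH fluorescence (Ex 340/Em 450 nm) was followed for 8 min.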
Tb PGK inh = inhibitors of T. brucei phosphoglycerate kinase; PGK/GAPDH coupled, Kinase-Glo luminescence, 60 min; actives 0.043% (n = 380,000); AID 602233; Potency, µM (titrated, usually from 57.5 µM), inactives show top-dose activity change, negative = inhibition, actives largely listed as inhibitors; P07378; further: potency means the concentration at half of the fitted maximal effect; on the % scale 0 is the no-effect control and ±100 the full control effect; nearly all actives have a fitted effect of over 60% in size
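Luminescent ATP detection (Kinase-Glo Plus) follows a 60-minute room-temperature incubation, with wells lacking PGK as controls. Buffer: 100 mM TEA (pH 7.6), 5 mM MgCl2, 0.01% Tween-20. Coupling enzyme GAPDH (100 nM final) supplies unstable 1,3-BPG in-well.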
PI4K2A inh = PI4K2A (human) kinase inhibition; actives 0.13% (n = 420,000); activity change, negative = inhibition, % at 76.9 µM; Q9BTU6; purified PI4K2A, ADP-Glo luminescence, 1 h; active compounds read low; AID 1346378; in the data active means activity change below about -50%; inconclusive means mostly about -30% to -49%;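 further: -100% = wells without enzyme as full effect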
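Compounds are screened against recombinant PI4K2A using PI as substrate and ATP, the latter dispensed at 300 microM. Reactions run one hour at ambient temperature before ADP-Glo detection; full inhibition defined by wells lacking enzyme.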
mIDH1 inhibitor = human IDH1 R132H inhibition. O75874. IDH1-R132H enzyme, NADPH consumption, diaphorase/resazurin fluorescence. Potency, µM (doses to about 76.6 µM), for the others: top-dose activity change, negative = inhibition, usual class: inhibitors. actives 0.093% (n = 390,000). AID 602179; further: potency means the concentration at half of the fitted maximal effect; on the % scale 0 is the no-effect control and ±100 the full control effect; nearly all actives have a fitted effect of over 65% in size
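IDH1-R132H (0.5 ug/mL dispensed) in pH 7.5 Tris buffer was preincubated 30 min with compound, then given a substrate mix of 0.016 mM NADPH and 2 mM alpha-KG for 80 min at room temperature; remaining NADPH was read by diaphorase/resazurin fluorescence.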
TrxR1 substrate = substrates of rat thioredoxin reductase 1 | purified TrxR1 substrate turnover, NADPH consumption readout | Potency, µM (doses to about 114 µM), without a hit: at the highest dose activity change, negative = substrate turnover | actives 0.01% (n = 390,000) | AID 588456; further: potency means the concentration at half of the fitted maximal effect; on the % scale 0 is the no-effect control and ±100 the full control effect; nearly all actives have a fitted effect of over 50% in size
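Rat TrxR1, dispensed at 90 nM, was prereduced with 400 uM NADPH (final) for 5 min at ~22 deg C, then incubated with compound 15 min before 400 uM selenite. A first-read NADPH fluorescence drop versus no-compound background flagged substrates.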
* hit, by the source's call; i = inactive; ? = inconclusive; . = no result given; [ ] = another dose, or the depositor's remark. Unless noted, the call rests on the fitted dose curve; in most records, active means well fitted curve in the direction sought with a large enough effect; inconclusive means small, poorly fitted or top-dose-only effect, or another doubt; inactive means no such curve, though single readings can be large; an effect the other way counts as inactive or inconclusive.

Results follow in this order: GLS inh	Pin1 inh	HP1b chromo inh	TrxR1 inh	Tb PGK inh	PI4K2A inh	mIDH1 inhibitor	TrxR1 substrate
[1] CC1(C)COC(c2cccc(C3=NC(C)(C)CO3)n2)=N1
    -3%	-4%	6%	25%	10%	-3	5%	8%
[2] Cc1ccc2oc(=O)c(/C=C(\O)c3ccccc3)nc2c1
    13%	?	61%[activator]	13%[57.1 µM]	i	-3	0%	6%[57.1 µM]
[3] COc1ccc(C(=O)/C=C/c2cn(CC(O)CN3CCN(C)CC3)c3ccccc23)cc1OC (stereo unspecified)
    9%	?	9%	15%	-6%	-1	0%	-4%[57.1 µM]
[4] CCC(=O)/C=C1/Sc2ccc(OC)cc2N1CC
    9%	-1%	35%	14%	-2%	-2	4%	-4%
[5] CCOC(=O)CN1C(=O)SC(Nc2ccc(C)cc2)C1=O (stereo unspecified)
    6%	4%	30%	-45%	-11%	-2	-9%	-3%[57.1 µM]
[6] COc1cc(/C=C2\CCCc3c2nc2ccccc2c3C(=O)O)cc(Cl)c1O
    29%	-14%	23%	-26%	i	-5	0%	-15%
[7] COc1ccc(C(=O)Nc2ccc(C)cc2C(=O)c2ccccc2)cc1
    14%	4%	-3%	9%[57.1 µM]	-3%	11	4%	6%[57.1 µM]
[8] O=C(Nc1ccccc1C(F)(F)F)N1CCC(N2CCCCC2)CC1
    -1%	-8%	30%	-2%	-11%	1	2%	2%
[9] COC(=O)c1ccc(NC(=S)N2CCN(Cc3ccccc3Cl)CC2)cc1
    1%	?	25%	0%	?	8	-8%	-7%
[10] Cc1ccccc1Cn1c(CN2CCc3ccccc3C2)nc2c1c(=O)n(C)c(=O)n2C
    -20%	28%	-25%	-35%[57.1 µM]	.	0	0%	11%[57.1 µM]
[11] Cc1nc(-c2ccc(NC(=O)c3ccco3)cc2)cs1
    4%	3%	17%	24%	-30%	?	-1%	0%
[12] CCOC(=O)C1CCN(C(=O)c2cc3ccc4ccc(C)[nH]c4c3n2)CC1
    -4%	-5%	-2%	8%	i	-2	0%	1%
[13] COc1ccc(CCNC(=O)c2c(C)oc3ncnc(N4CCOCC4)c23)c(OC)c1
    6%	-10%	26%	14%	-9%	-1	43%[activator]	6%
[14] CC1CCN(C(=O)CCCNC(=O)Cn2cnc3sc4c(c3c2=O)CCCC4)CC1
    -11%	-1%	40%[activator]	-10%	10%	-3	7%	0%
[15] CCOC(=O)Cn1c(CN2CCc3ccccc3C2)nc2c1c(=O)n(C)c(=O)n2C
    6%	1%	59%[activator]	11%[57.1 µM]	-9%	-6	-3%	13%[57.1 µM]
[16] CCOC(=O)c1ccc(Nc2cc(C)nc(-c3ccccc3)n2)cc1
    -2%	2%	39%	11%	-6%	2	4%	3%[57.1 µM]
[17] O=C(CCC(=O)N1CCOc2ccccc21)Nc1ccc(F)cc1F
    -2%	3%	17%	8%[57.1 µM]	-1%	3	14%	9%[57.1 µM]
[18] COC(=O)CCC(=O)OC1(C)C(=O)C=C2C=C(C3CC3)N(Cc3ccco3)C=C2C1=O (stereo unspecified)
    -5%	?	18%	-34%	-7%	-6	2%	-1%
[19] Cc1ccc(C(=O)Nc2ccccc2C(=O)O)cc1S(=O)(=O)NCc1ccccc1
    29%	11%	37%	13%	-5%	0	8%	1%
[20] COC(=O)CCC(=O)OC1(C)C(=O)C=C2C=C(C3CC3)N(C3CCCC3)C=C2C1=O (stereo unspecified)
    14%	-11%	19%	18%[57.1 µM]	-7%	-10	-1%	-4%[57.1 µM]

Carrying on.
Results follow in this order: GLS inh	Pin1 inh	HP1b chromo inh	TrxR1 inh	Tb PGK inh	PI4K2A inh	mIDH1 inhibitor	TrxR1 substrate
[21] Cc1cccc(NC2SC(=O)N(CC(=O)O)C2=O)c1 (stereo unspecified)
    41%[activator]	-10%	54%[activator]	16%	.	-5	-4%	-6%
[22] Cc1ccccc1CN1CCNC(=O)C1CC(=O)NCCC1=CCCCC1 (stereo unspecified)
    0%	-1%	18%	?	-6%	-2	-2%	8%
[23] Cc1ccc2ccc3cc(C(=O)N4CCN(c5ccccc5)CC4)nc3c2[nH]1
    16%	21%	8%	11%	-11%	4	10%	-5%
[24] CCOC(=O)C(=O)NC12CC3CC(CC(C3)C1)C2
    -4%	-5%	32%	33%[57.1 µM]	-5%	-9	6%	18%
[25] CC(=O)N1CCc2c(sc(NC(=O)C3CCCCC3)c2C(N)=O)C1
    2%	?	41%[activator]	-3%	6%	-2	-5%	3%
[26] O=C(NCCNc1cc(Cl)ccc1[N+](=O)[O-])c1ccco1
    -2%	2%	-1%	10%[57.1 µM]	i	7	4%	11%[57.1 µM]
[27] Cc1nc(-c2ccc(NC(=O)/C=C\C(=O)O)cc2)cs1
    0%	1%	-31%	6%[11.4 µM]	17%	2	30%[activator]	8%[57.1 µM]
[28] CCOC(=O)c1ccc(-c2ccc(/C=C(\C#N)C(=O)Nc3cccc(C)c3)o2)cc1
    -3%	?	24%	16%[57.1 µM]	-13%	-1	10%	-3%[57.1 µM]
[29] CCn1c(C(=O)N2CCCC(C(=O)N3CCN(c4cc(C)ccc4C)CC3)C2)cc2sccc21 (stereo unspecified)
    -2%	14%	-3%	13%	5%	0	21%	-1%
[30] COc1cccc(N2CCN(C(=O)c3c(C)oc4ncnc(N5CCOCC5)c34)CC2)c1
    7%	0%	47%	21%	0%	-3	-1%	6%
[31] C=CCNC(=O)C1(S(=O)(=O)c2ccccc2)CC=CC1
    -6%	0%	45%[activator]	13%	i	-1	13%	4%
[32] O=[N+]([O-])c1c(NCCO)cc(N2CCC3(CC2)OCCO3)c2nonc12
    13%	3%	13%	-7%	3%	0	7%	-17%
[33] CCN(CC)C(=O)c1sc(NC(=O)C2c3ccccc3Oc3ccccc32)c(C(=O)OC(C)C)c1C
    -12%	19%	17%	50%[activator]	2%	-10	28%	10%
[34] O=C(CCC(=O)N1CCOc2ccccc21)NC1CCCCCC1
    11%	-8%	24%	6%[57.1 µM]	2%	-13	-5%	-2%[57.1 µM]
[35] CC1Cc2ccccc2N1C(=O)c1cc2c(=O)n3ccccc3nc2n1C (stereo unspecified)
    -9%	-1%	99%[activator]	-4%	-5%	-1	5%	6%
[36] CC(=O)c1sc2nsc(SCCN3CCOCC3)c2c1N
    3%	?	79µM*	4%[57.1 µM]	-3%	-11	17%	-5%[57.1 µM]
[37] OCC(CO)(CO)N=Cc1c(O)ccc2ccccc12
    5%	-13%	7%	7%	-5%	-12	22%	-2%
[38] CC(C(=O)NCCc1ccccc1)N1c2cccc3cccc(c23)S1(=O)=O (stereo unspecified)
    -5%	-9%	61%[activator]	13%	-7%	-5	11%	8%
[39] Cc1cc(N2CCN(c3ccccc3)CC2)nc(-n2nc(C)cc2C)n1
    13%	-1%	16%	-6%	-9%	2	2%	-3%
[40] COc1ccc(C)cc1N(C)C(=O)c1c(C)oc2ncnc(N3CCOCC3)c12
    1%	-2%	5%	14%	-3%	-1	44%[activator]	3%

7 compounds already listed, ordered by count of non-hydrogen atoms, lowest first:
Results follow in this order: GLS inh	Pin1 inh	HP1b chromo inh	TrxR1 inh	Tb PGK inh	PI4K2A inh	mIDH1 inhibitor	TrxR1 substrate
[21] Cc1cccc(NC2SC(=O)N(CC(=O)O)C2=O)c1 (stereo unspecified)
    41%[activator]	-10%	54%[activator]	16%	.	-5	-4%	-6%
[27] Cc1nc(-c2ccc(NC(=O)/C=C\C(=O)O)cc2)cs1
    0%	1%	-31%	6%[11.4 µM]	17%	2	30%[activator]	8%[57.1 µM]
[36] CC(=O)c1sc2nsc(SCCN3CCOCC3)c2c1N
    3%	?	79µM*	4%[57.1 µM]	-3%	-11	17%	-5%[57.1 µM]
[32] O=[N+]([O-])c1c(NCCO)cc(N2CCC3(CC2)OCCO3)c2nonc12
    13%	3%	13%	-7%	3%	0	7%	-17%
[35] CC1Cc2ccccc2N1C(=O)c1cc2c(=O)n3ccccc3nc2n1C (stereo unspecified)
    -9%	-1%	99%[activator]	-4%	-5%	-1	5%	6%
[28] CCOC(=O)c1ccc(-c2ccc(/C=C(\C#N)C(=O)Nc3cccc(C)c3)o2)cc1
    -3%	?	24%	16%[57.1 µM]	-13%	-1	10%	-3%[57.1 µM]
[29] CCn1c(C(=O)N2CCCC(C(=O)N3CCN(c4cc(C)ccc4C)CC3)C2)cc2sccc21 (stereo unspecified)
    -2%	14%	-3%	13%	5%	0	21%	-1%

Other compounds
Results follow in this order: GLS inh	Pin1 inh	HP1b chromo inh	TrxR1 inh	Tb PGK inh	PI4K2A inh	mIDH1 inhibitor	TrxR1 substrate
[41] COc1cccc(/C=C/C(=O)OCC(=O)N2CCN(c3ccccc3)CC2)c1
    1%	-1%	3%	-18%	i	1	14%	15%
[42] O=C1Cc2ccccc2C(=O)N1Nc1ccccc1
    5%	-1%	29%	50µM*	-9%	0	-1%	-7%
[43] CN(C)CCCn1c(N)c(C#N)c2nc3ccccc3nc21
    -19%	?	20%	6%[57.1 µM]	-3%	-4	4%	119%[activator][57.1 µM]
[44] Cc1ccc(S(=O)(=O)N2CCN(C(=O)COC(=O)/C=C/c3ccc(Cl)cc3)CC2)c(C)c1
    9%	-1%	9%	-10%	-3%	7	-2%	-4%
[45] Cn1c(=O)c2c(nc(CN3CCc4ccccc4C3)n2Cc2ccc(F)cc2)n(C)c1=O
    -10%	38%[activator]	36%	-11%	-11%	-6	3%	-4%

The list is partial (hit frequency here may not be typical).
